# Source: PubChem
# GLA inh pH 4.5: alpha-galactosidase A (human) inhibition, pH 4.5 | P06280 | purified enzyme, 4-MU-alpha-Gal fluorescence, pH 4.5 | activity change, negative = inhibition, % at 105 µM | 230,000 tested, under 10 active | AID 1467; inconclusive = small, poorly fitted or top-dose-only inhibition, or a rising curve; inactive = flat fitted curve, though single readings scatter; no compound was filed as active;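 note: 0% = full activity with enzyme and -100% = basal without enzyme; dose as in the result columns while the protocol names 77 µM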
# Rango complex inh: inhibitors of Rango-importin beta complex formation; Rango CFP/YFP FRET sensor + importin beta, 45 min; Potency, µM (doses to about 92.2 µM), without a hit: top-dose inhibition of complex formation; actives 0.031% (n = 340,000); AID 540263; active = rising FRET ratio curve, often small or poorly fitted; inconclusive = mostly compound fluorescence or quenching in the first reads; inactive = flat curves in all reads;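 note: potency is the fitted concentration of half-maximal effect; 0% = DMSO wells and 100% = buffer wells lacking importin beta; nearly all actives have a fitted effect of over 15% in size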
# Target sequence (Q14974 whole entry, looked up): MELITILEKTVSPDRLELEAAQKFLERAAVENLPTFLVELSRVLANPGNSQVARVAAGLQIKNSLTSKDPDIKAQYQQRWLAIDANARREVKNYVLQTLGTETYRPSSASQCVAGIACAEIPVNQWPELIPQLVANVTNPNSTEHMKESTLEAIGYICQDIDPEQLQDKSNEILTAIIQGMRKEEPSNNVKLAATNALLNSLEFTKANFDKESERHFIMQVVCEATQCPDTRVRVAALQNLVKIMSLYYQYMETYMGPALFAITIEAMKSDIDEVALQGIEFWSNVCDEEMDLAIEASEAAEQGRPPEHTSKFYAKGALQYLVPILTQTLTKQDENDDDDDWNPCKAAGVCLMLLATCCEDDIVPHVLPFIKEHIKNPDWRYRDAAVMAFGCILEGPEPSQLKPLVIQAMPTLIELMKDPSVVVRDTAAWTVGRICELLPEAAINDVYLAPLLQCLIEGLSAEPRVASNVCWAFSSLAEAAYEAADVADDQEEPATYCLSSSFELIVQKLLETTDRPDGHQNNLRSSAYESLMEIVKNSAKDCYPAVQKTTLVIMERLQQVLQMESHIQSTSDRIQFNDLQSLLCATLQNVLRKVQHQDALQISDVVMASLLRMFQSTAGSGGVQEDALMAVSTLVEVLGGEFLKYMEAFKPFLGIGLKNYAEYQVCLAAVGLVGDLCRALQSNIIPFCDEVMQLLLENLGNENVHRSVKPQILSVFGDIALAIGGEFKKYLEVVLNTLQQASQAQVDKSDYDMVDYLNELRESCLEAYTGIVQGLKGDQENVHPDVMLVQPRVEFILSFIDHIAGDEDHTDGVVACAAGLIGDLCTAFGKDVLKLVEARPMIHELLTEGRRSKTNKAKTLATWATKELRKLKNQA
#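 FRET biosensor Rango (snurportin 1 IBB between N-terminal EYFP and C-terminal Cerulean), 50 nM in PBS/1 mM DTT/0.02% Tween-20/0.1% BSA, preincubated 5 min RT with compound; 0.125 microM importin beta added, 45 min RT, CFP/YFP FRET ratio read.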
# Rango release inh: prevents RanGTP from dissociating the Rango-importin beta complex; O95149+P62826; Biochemical FRET Rango-importin beta, RanGTP-induced dissociation; Potency, µM (highest dose often 46.1 µM), for inactives: at the highest dose activity change, negative = inhibition; actives 0.071% (n = 340,000); AID 540253; active means falling FRET ratio curve, often poorly fitted, with flat reads before Ran was added; inconclusive means other falling curves, or compound fluorescence or quenching; inactive means flat or rising ratio curve;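 note: potency is the fitted concentration of half-maximal effect; % of control where 0% means no effect; nearly all actives have a fitted effect of over 45% in size; -100% = wells without RanGTP and RCC1; the record marks most hits as doubtful in a second field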
#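 Rango (0.1 uM)–importin beta (0.25 uM) complex; RanGTP-RCC1 trigger; 45 min RT; CFP/YFP FRET read.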
# miR-21 FLuc: miR-21 reporter, rising signal. HeLa miR-21 FLuc reporter, luciferase, 48 h. AID 2288. 340,000 tested, under 10 active. Potency, µM (series often up to 38.3 µM), inactives show at the top dose reporter change, positive = more light; active = well fitted rising curve with a large enough effect; inconclusive = small, poorly fitted or top-dose-only effect; inactive = no such curve, though single readings can be large or run the other way;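 note: % of control where 0% means no effect; miR-21 action dims this reporter so a rising signal means less miR-21 action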
#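 HeLa cells stably expressing CMV-driven firefly luciferase with a downstream miR-21 binding sequence, endogenously expressing miR-21, were treated with titrations (up to about 40uM final) for 48 hours at 37 degree Celsius. Luciferase luminescence was read after lysis.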
# Starred values were filed as active, the others as inactive; u = inconclusive; x = no result given; & = joins results of further samples; [ ] = another dose, or the depositor's remark. A portion of the library, so the mix of outcomes need not match the whole.
# Sample of the layout, 20 compounds:
smiles,GLA inh pH 4.5,Rango complex inh,Rango release inh,miR-21 FLuc
Cc1cc(C)n2nc(SCC(=O)NC(=O)c3ccc(OC(F)F)cc3)nc2n1,x,-1.8%,u,x
CC(NC(=O)c1ccc2c(c1)OCO2)C(c1cccs1)N1CCOCC1 (stereo not given),-5,0.1%,-2%,-5%
Cc1c(OCC(=O)N2CCC(C(=O)O)CC2)ccc2c1oc(=O)c1ccccc12,x,-0.7%,-13%,-1%
O=c1[nH]c(=S)[nH]c2c1CN(Cc1ccc(F)cc1)CC2,x,-3.1%,-21%,-1%
CCCOc1ccc(CNC(=O)c2ccc3c(c2)N(CC)CCS3)cc1,x,-0.9%,0%,3%
COc1ccc(OC)c(/C=C2\Oc3cc(OCC(=O)N4CCC(C(=O)O)CC4)ccc3C2=O)c1,x,u,u,2%
CCOc1cc(/C=C/C(=O)OCC(=O)NCC2CCCO2)cc(Cl)c1OC (stereo not given),x,5.1%,8%,x
O=c1c2[nH]c3ccc(F)cc3c2ncn1CCN1CCOCC1,-5,-3.3%,29%,-11%
O=C1CCCC/C1=C/Nc1ccc(C(=O)O)cc1,-1,0.1%,-1%,-37%
COc1ccc(-c2cc(=O)n(-c3nc4ccccc4[nH]3)[nH]2)cc1,3,u,u,-14%
Cc1n[nH]c(=O)nc1NCc1ccco1,-5,2.0%,34%,-5%
CC(=O)OCC1=C(C(=O)O)N2C(=O)C(NC(=O)CCn3nc(C(F)(F)F)c(Br)c3C3CC3)C2SC1 (stereo not given),-7[21.1 µM],-2.6%,21%,0%
Cc1nnc(NC(=O)CSc2nc(C(C)C)nc3ccccc23)s1,-2,-0.2%,1%,-5%
O=C(Nc1ccc2[nH]c(=O)[nH]c2c1)c1cc(F)c(F)cc1Cl,7,-5.9%,2%,-11%
COC(=O)c1ccccc1NC(=O)CN1CCC(n2nnc3cc(F)ccc32)CC1,-6,-0.8%,1%,-8%
CCC1(c2ccc(F)cc2)NC(=O)N(CC(=O)Nc2cccnc2Cl)C1=O (stereo not given),x,-2.0%,9%,x
O=C(c1cnc2n(c1=O)CCS2)N1CCN(c2ccc([N+](=O)[O-])cc2)CC1,-5,0.2%,0%,1%
Cc1ccccc1NC(=O)/C(=C\c1cccs1)NC(=O)c1ccco1,9,-3.0%,-15%,1%
CCCCC(=O)Nc1ccc2c(c1)C(=O)NC2=O,8,-1.5%,2%,-3%
COc1ccc(C)cc1N(CC(=O)Nc1cccnc1)S(=O)(=O)c1ccccc1,-17,2.4%,-10%,6%

# The whole of this part, from the start:
smiles,GLA inh pH 4.5,Rango complex inh,Rango release inh,miR-21 FLuc
Cc1cc(C)n2nc(SCC(=O)NC(=O)c3ccc(OC(F)F)cc3)nc2n1,x,-1.8%,u,x
CC(NC(=O)c1ccc2c(c1)OCO2)C(c1cccs1)N1CCOCC1 (stereo not given),-5,0.1%,-2%,-5%
Cc1c(OCC(=O)N2CCC(C(=O)O)CC2)ccc2c1oc(=O)c1ccccc12,x,-0.7%,-13%,-1%
O=c1[nH]c(=S)[nH]c2c1CN(Cc1ccc(F)cc1)CC2,x,-3.1%,-21%,-1%
CCCOc1ccc(CNC(=O)c2ccc3c(c2)N(CC)CCS3)cc1,x,-0.9%,0%,3%
COc1ccc(OC)c(/C=C2\Oc3cc(OCC(=O)N4CCC(C(=O)O)CC4)ccc3C2=O)c1,x,u,u,2%
CCOc1cc(/C=C/C(=O)OCC(=O)NCC2CCCO2)cc(Cl)c1OC (stereo not given),x,5.1%,8%,x
O=c1c2[nH]c3ccc(F)cc3c2ncn1CCN1CCOCC1,-5,-3.3%,29%,-11%
O=C1CCCC/C1=C/Nc1ccc(C(=O)O)cc1,-1,0.1%,-1%,-37%
COc1ccc(-c2cc(=O)n(-c3nc4ccccc4[nH]3)[nH]2)cc1,3,u,u,-14%
Cc1n[nH]c(=O)nc1NCc1ccco1,-5,2.0%,34%,-5%
CC(=O)OCC1=C(C(=O)O)N2C(=O)C(NC(=O)CCn3nc(C(F)(F)F)c(Br)c3C3CC3)C2SC1 (stereo not given),-7[21.1 µM],-2.6%,21%,0%
Cc1nnc(NC(=O)CSc2nc(C(C)C)nc3ccccc23)s1,-2,-0.2%,1%,-5%
O=C(Nc1ccc2[nH]c(=O)[nH]c2c1)c1cc(F)c(F)cc1Cl,7,-5.9%,2%,-11%
COC(=O)c1ccccc1NC(=O)CN1CCC(n2nnc3cc(F)ccc32)CC1,-6,-0.8%,1%,-8%
CCC1(c2ccc(F)cc2)NC(=O)N(CC(=O)Nc2cccnc2Cl)C1=O (stereo not given),x,-2.0%,9%,x
O=C(c1cnc2n(c1=O)CCS2)N1CCN(c2ccc([N+](=O)[O-])cc2)CC1,-5,0.2%,0%,1%
Cc1ccccc1NC(=O)/C(=C\c1cccs1)NC(=O)c1ccco1,9,-3.0%,-15%,1%
CCCCC(=O)Nc1ccc2c(c1)C(=O)NC2=O,8,-1.5%,2%,-3%
COc1ccc(C)cc1N(CC(=O)Nc1cccnc1)S(=O)(=O)c1ccccc1,-17,2.4%,-10%,6%
CCC1CCc2c(sc(NC(C)=O)c2C#N)C1 (stereo not given),1,9.5%,-10%,-36%
O=[N+]([O-])c1ccc(OCCO)nc1,-6,0.8%,0%,-6%
COc1ccccc1S(=O)(=O)Cc1ccc(C(=O)NCc2ccc(C)cc2)o1,x,6.1%,3%,1%
S=C(NCCCN1CCOCC1)NCCCN1CCOCC1,2,-0.5%,8%,0%
CCOC(=O)C(/C=C(\C#N)C(=O)OCC)=C(/N)N1CCN(c2ccccc2)CC1,-1,-4.7%,1%,-1%
CCOC(=O)c1cc2c(ccn2C)n1CC(=O)N1C(C)CCCC1C (stereo not given),3,0.2%,3%,6%
CCOc1ccc(NC(=O)Nc2ccc(Cc3ccncc3)cc2)cc1,-10,-0.1%,-2%,15%
CN(CCCOc1ccccc1Br)Cc1ccccc1,-5,3.1%,20%,-8%
Cc1cc2c(nn1)CCC/C2=N\O,-4,-1.4%,u,-7%
COc1ccccc1COCC(O)CNCC1(N2CCCCC2)CCCCC1 (stereo not given),-6,2.8%,11%,1%

# (continued)
# Below each SMILES – GLA inh pH 4.5 | Rango complex inh | Rango release inh | miR-21 FLuc
- CCCCCCCC[n+]1cccc2c3ccccc3ccc21
 : u | 1.4% | -8% | u
- COc1ccc(NC(=O)c2cc(S(=O)(=O)N3CCCCC3)ccc2N2CCCCC2)cn1
 : 5 | -3.2% | -17% | 0%
- Cc1[nH]c2ccccc2c1C(=O)C(=O)NCc1ccncc1
 : x | 2.9% | 7% | x
- Cn1c(=O)c2c(ncn2CCC(=O)N/N=C/c2cccnc2)n(C)c1=O
 : -3 | -0.6% | -4% | -1%
- COc1ccc(/C=C2\SC(=S)N(CC(=O)NCCO)C2=O)cc1
 : 5 | u | -9% | -3%
- CCCc1nnc(NC(=O)CCC(=O)NCCc2ccc(Cl)cc2)s1
 : x | 1.0% | 1% | -1%
- CCCCNC(=S)NC(=O)c1ccc([N+](=O)[O-])cc1
 : -3 | 10% | 18% | -15%
- COc1ccc(NC(=O)c2cccc(N3C(=O)c4ccc(C(=O)Nc5ccc(OC)c(O)c5)cc4C3=O)c2)cc1O
 : x | -4.9% | 9% | -1%
- CCC(c1nnnn1Cc1cccs1)N1CCN(C2CCCC2)CC1 (stereo not given)
 : 5 | -4.6% | 39% | -4%
- Cc1sc(NC(=O)c2ccc(=O)n(C)n2)nc1-c1ccccc1
 : 5 | 2.5% | 9% | -29%
- COc1ccc(CN2C(=O)CCC2(C)C(=O)NC2CCCCCC2)cc1 (stereo not given)
 : -4 | -1.8% | -6% | -5%
- COc1cccc(-c2c(-c3cc(OC)cc(OC)c3)n(C)c3ccc(-c4cccc5[nH]ccc45)cc23)c1
 : x | -1.8% | -10% | x
- Cc1ccc(CNC(=O)CCc2c(C)nn(-c3ccc(N4CCOCC4)nn3)c2C)cc1
 : x | 4.9% | 1% | -3%&-9%
- CC1CC(C)CN(C(=S)NC2CCCCC2)C1 (stereo not given)
 : -5 | 0.0% | 3% | -6%
- CCCC(=O)Nc1nnc(SCC(=O)NCc2cccs2)s1
 : 3 | 0.9% | -25% | -8%
- COC(=O)c1c(C)nc(C)c(C(=O)OC)c1-c1ccc(OC)c(OC)c1
 : 6 | -3.4% | -6% | -10%
- COC(=O)c1cc2ccccc2c(-c2c(OC)c(C(=O)OC)cc3ccccc23)c1OC
 : -6 | 4.8% | 14% | 12%
- COCCCNc1nc(-c2ccc(Cl)cc2)nc2ccccc12
 : x | 3.2% | -2% | 6%
- Nc1c(N2CCCCC2)c2ccccc2oc1=O
 : -3 | 2.8% | -5% | -3%
- CCOC(=O)[C@@H]1[C@H]2COc3ccccc3[C@@H]2N2C(=O)N(c3ccccc3)C(=O)[C@]12C
 : x | -1.0% | 8% | -1%
- O=C(CC1Sc2ccccc2NC1=O)OCC(=O)N1CCc2ccccc21 (stereo not given)
 : 13 | -3.4% | -11% | -16%
- CNC(=S)Nc1ccc(C)cc1
 : -4 | -0.2% | 3% | -18%
- COC(=O)C1=C(C)N(C)C(C)=C(C(=O)OC)C1c1cccc(Br)c1
 : 1 | -2.6% | 3% | -8%
- Cc1n[nH]c(=S)n1/N=C/c1ccc(OCc2ccc(Cl)cc2Cl)cc1
 : -9 | -0.7% | -6% | -64%
- Cc1ccc(F)cc1NC(=O)c1ccc2c(c1)OCO2
 : -1 | 4.6% | 28% | -32%
- CC(C)NC(=O)Nc1ccc2c(c1)C(=O)N([C@H](C)CO)C[C@H](C)[C@@H](CN(C)C(=O)NC(C)C)O2
 : x | -3.0% | 1% | x
- CN1CCCC(OC(=O)c2ccccc2F)C1 (stereo not given)
 : x | 7.2% | -6% | 1%
- CNC(=S)NCCC(c1ccccc1)c1ccccc1
 : 1 | -0.8% | 7% | 9%
- CCOc1ccc(CCNC(=O)CCC(=O)N2CCSc3ccccc32)cc1OCC
 : x | -3.7% | 10% | 7%
- COc1ccc(-c2csc(Nc3cccc(C)n3)n2)cc1C
 : x | -2.4% | 8% | -48%
- CC(Nc1nc(-c2ccccc2F)nc2ccccc12)c1ccccc1 (stereo not given)
 : x | 0.1% | -5% | 4%
- CCOC(=O)c1c(C)oc2c(CC(=O)c3ccccc3)c(Cl)c(O)c(O)c12
 : 2 | 2.3% | 14% | -7%
- COc1cccc(C2CC(c3ccc(Cl)cc3Cl)Nc3nc(N)nn32)c1 (stereo not given)
 : -4 | -2.4% | -18% | -13%
- CCOc1ccc(C(C)(O)CN2CCOCC2)cc1 (stereo not given)
 : 11 | 3.9% | 3% | 1%
- CCOC(=O)C1CCCN(Cc2nc(N)nc(Nc3ccccc3)n2)C1 (stereo not given)
 : 3 | -18% | -14% | 5%
- COC(=O)c1ccccc1NC(=O)Cn1cc2c(n1)CCC(C)C2 (stereo not given)
 : -5 | -1.9% | -9% | -34%
- Cc1c(N(C(=O)CNC(=O)c2ccccc2)C2(C(=O)NC3CCCCC3)CCCCC2)c(=O)n(-c2ccccc2)n1C
 : 2 | -0.1% | -13% | 7%
- Cn1c(=O)[nH]c(=O)c2c1nc(N1CCc3ccccc3C1)n2CCSc1nc2ccccc2s1
 : 2 | 5.1% | 12% | -4%
